From PubChem
A1 inh – caspase 3/7 activation in MEF A1-2A-BIM cells, primary screen, A1 inhibitor project, cell-based, luminescence, HTS; Caspase-Glo 3/7 luminescence, 3 h; percent of clofoctol response, vehicle zero; caspase activation, % (test concentration not listed); hit rate 0.066% among 330,000;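 active means over half of replicate activation scores above 10%, or exactly half above 10 with the replicate mean above 10; inconclusive means replicate mean below 10 yet half the replicates above 10; inactive means over half of replicates below 10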;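 further: wells of about 30 µL received 50 nL stock; many hits fall short of the cut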
Calb FLC – C. albicans growth inhibition with fluconazole, primary screen, CaCi-2 strain, Alamar Blue fluorescence; C. albicans CaCi-2 (fluconazole-resistant clinical isolate) + fluconazole, 48 h; growth inhibition, % (no concentration beside the values); hit rate 0.57% among 300,000; AID 1979, 2009;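 active means most replicates above 75%; inconclusive means exactly half above 75%; inactive means most below 75%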;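 further: all wells also contain fluconazole at 8 µg/ml as a sub-toxic cotreatment; 0% = median of DMSO wells and 100% = median of geldanamycin control wells; wells of about 8 µL received 7.5 nL stock; the first replicate is given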
LANA-H2B inh – blockers of LANA interaction with H2A/H2B – biochemical, FP readout, HTS, primary screen | AID 2629, 2010 | hit rate 0.6% among 320,000 | inhibition, % (concentration not given with the values) | cell-free LANA-H2A/H2B peptide, fluorescence polarization; in the data active means inhibition mostly above about 10%, no sharp cut-off; inactive means mostly below about 6.7%;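 further: stock transfer was 7.5 nL into about 10 µL; 0% = median of vehicle wells and 100% = median of positive control wells; one replicate is shown; the record names a cut of 25% in any replicate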
T cruzi repl – inhibitors of intracellular T. cruzi growth, primary screen, luminescence, NIH3T3 host cells; T. cruzi beta-gal in NIH3T3, 90 h; inhibition, % (test concentration not listed); hit rate 1.4% among 300,000; AID 1885, 2009;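 active means mean inhibition across valid replicates above about 55%, limit read from the data; inconclusive means mean below that limit but half or more replicates reach it; inactive means mean below it, under half of replicates reach it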;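 further: signal also drops with host cell toxicity which is not excluded here; 0% = plate median of DMSO wells and 100% = zero luminescence signal; higher percent means less beta-gal luminescence so fewer parasites; stock transfer was 50 nL into about 50 µL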
UCH37 inh – inhibitors of human UCH37 deubiquitinase, primary screen, biochemical, Ub-AMC cleavage, fluorescence; inhibition, % (test concentration not listed); Ubiquitin carboxyl-terminal hydrolase isozyme L5 (Homo sapiens), Q9Y5K5; purified proteasome/UCH37; hit rate 0.33% among 330,000;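 active means mean of two replicates above 20%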;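 further: 0% = compound-free wells with enzyme and 100% = wells lacking proteasome; stock transfer was 100 nL into about 20 µL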
Target sequence (Q9Y5K5 whole entry, looked up): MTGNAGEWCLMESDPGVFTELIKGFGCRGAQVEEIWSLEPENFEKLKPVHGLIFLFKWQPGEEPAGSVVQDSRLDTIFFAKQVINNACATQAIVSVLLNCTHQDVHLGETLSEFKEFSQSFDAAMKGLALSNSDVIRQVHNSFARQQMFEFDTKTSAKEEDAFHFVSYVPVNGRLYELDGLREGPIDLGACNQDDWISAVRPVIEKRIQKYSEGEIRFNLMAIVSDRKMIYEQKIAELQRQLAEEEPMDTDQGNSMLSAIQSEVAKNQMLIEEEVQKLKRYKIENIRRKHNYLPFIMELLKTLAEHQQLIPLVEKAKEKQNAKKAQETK
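System: Proteasome-associated human UCH37 deubiquitinase; Input: 0.15 nM proteasome in added enzyme buffer; Also added: Ub-AMC substrate from 1 µM stock; Incubation: 30 min compound-proteasome preincubation then 25 min substrate reaction, room temperature; Detection: fluorescence, ex 355 nm, em 460 nm; Read-out: % inhibition of Ub-AMC cleavage fluorescence; Benchmarks: no-proteasome and no-compound wells.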
Beta cell apopt – inhibitors of cytokine-induced beta cell apoptosis, primary screen, luminescence | INS-1E cytokine-induced death, ATP luminescence, 48 h; percent of positive-control rescue, neutral wells zero | protection from apoptosis, % (no concentration beside the values) | hit rate 0.8% among 300,000;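 active means all replicates at 75% or more, or half of them and the mean; inconclusive means half reach 75% but not the mean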;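 further: 0% = cytokine-treated negative control wells and 100% = positive control rescue; higher means more ATP so stronger rescue from cytokine killing; wells of about 40 µL received 100 nL stock; the first replicate is given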
RanGTP-Impb inh – inhibitors of RanGTP-importin-beta interaction, primary screen, biochemical, FRET, CFP-Ran, YFP-importin-beta, homogeneous. AID 2216, 2009. inhibition, % (no concentration beside the values). cell-free CFP-Ran/YFP-importin-beta FRET ratio. hit rate 1.1% among 300,000;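 active means most replicates above 15%; inconclusive means exactly half above 15%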;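 further: 0% = DMSO wells and 100% = Ran loaded with GDP instead of GTP; wells of about 40 µL received 100 nL stock; the first replicate is given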
B2AR ag – beta2AR agonists driving receptor internalization, primary screen, cell-based, FAP fluorogen, flow cytometry; Beta-2 adrenergic receptor (Homo sapiens), P07550; Am2.2-beta2AR cells; reference of the scale not given here; response, % (no concentration beside the values); hit rate 0.43% among 340,000; AID 504454, 2011;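 active means response above a set limit, near 3 SD of response in nonfluorescent compounds, cut at about 42% in these data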;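 further: stock transfer was 100 nL into about 11 µL; a reference agonist was the positive control; negative values mostly stem from fluorescent compounds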
Target sequence (P07550 whole entry, looked up): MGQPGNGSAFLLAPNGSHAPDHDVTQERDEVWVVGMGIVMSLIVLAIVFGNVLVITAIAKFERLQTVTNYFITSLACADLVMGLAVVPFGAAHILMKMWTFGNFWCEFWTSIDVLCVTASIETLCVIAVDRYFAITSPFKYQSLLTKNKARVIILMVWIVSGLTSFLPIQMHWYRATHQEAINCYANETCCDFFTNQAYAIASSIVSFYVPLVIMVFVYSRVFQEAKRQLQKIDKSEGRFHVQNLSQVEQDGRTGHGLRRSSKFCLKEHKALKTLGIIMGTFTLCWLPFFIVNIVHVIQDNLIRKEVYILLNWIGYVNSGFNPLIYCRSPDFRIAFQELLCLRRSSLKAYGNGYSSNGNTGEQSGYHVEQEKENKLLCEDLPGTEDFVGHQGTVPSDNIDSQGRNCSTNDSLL
An asterisk follows results filed as active; ? = inconclusive; . = not tested or not shown.

SMILES | A1 inh | Calb FLC | LANA-H2B inh | T cruzi repl | UCH37 inh | Beta cell apopt | RanGTP-Impb inh | B2AR ag
CCOC(=O)c1nn(-c2ccccc2F)c2nc(-c3ccco3)c(C#N)c(=O)n12 | 0.5 | 17 | . | 4 | -28 | 6 | 0.5 | -1
CCOC(=O)c1ccc(NC(=O)C2(c3ccccc3)CCOCC2)cc1 | -0.1 | 5 | 0.5 | 0 | 2.6 | -1 | 7.9 | 4
Nc1c2c(nc3cccc(Cl)c13)N(c1ccccc1)CC2 | 0.6 | 3 | -3.6 | -10 | -21 | -3 | 3.0 | 1
CCc1ccc(C2CC(=O)N3CN(c4ccccc4)CSC3=C2C#N)cc1 (stereo unspecified) | 0.0 | 2 | -2.2 | 2 | 2.3 | -5 | 0.1 | -5
CCCCCCN=C(C)c1ccccc1O | 0.9 | -1 | -2.8 | -5 | . | . | 1.3 | -3
O=C(CCC1CCCN(C(=O)c2cncs2)C1)NCc1ccc(F)c(F)c1 (stereo unspecified) | 0.5 | 20 | 6.3 | 15 | 4.6 | . | -0.1 | -14
CCC(CC)NC(=O)Cc1ccccc1[N+](=O)[O-] | 0.5 | 2 | 3.3 | -9 | 1.3 | 1 | 0.9 | 7
CCN1C(=O)[C@H]2[C@@H](c3ccc(C)cc3)N3C(=O)N(c4ccc(C)cc4)C(=O)[C@@]3(Cc3ccc(Cl)cc3)[C@H]2C1=O | -0.4 | 19 | -8.1 | -7 | -0.3 | 7 | 5.6 | -6
CCOc1ccccc1N(CC(=O)Nc1ccc(S(=O)(=O)N2CCOCC2)cc1)S(C)(=O)=O | 0.2 | 0 | -7.8 | 6 | 0.2 | -2 | -4.7 | 6
CCOC(=O)c1sc2cc([N+](=O)[O-])cc(SCCO)c2c1N | 0.2 | 10 | 3.5 | 8 | 5.8 | -4 | 2.2 | 1
COc1ccc(C(C)C)cc1S(=O)(=O)NC1CCCC1 | 1.2 | -14 | -7.9 | 1 | -0.1 | -2 | 1.0 | 1
CC(C)N1CCN(Cc2cccs2)CC1CCO (stereo unspecified) | . | -10 | . | 3 | 0.0 | . | -0.9 | 9
Cc1ccc(NC(=O)c2ccccc2)cc1OC(=O)c1ccccc1 | -0.2 | -11 | -1.3 | 4 | 1.2 | -5 | -2.0 | -60
Oc1[nH]c(=S)sc1/C=C1\C(c2ccccc2)=Nc2ccccc21 | 0.6 | 1 | -2.2 | 36 | 5.9 | -4 | ? | -5
COc1ccc(-n2c(Cc3cccn3C)nnc2SCC(=O)NCc2ccc(F)cc2)cc1 | 0.1 | 0 | 0.6 | 1 | 2.2 | 1 | -2.5 | 2
COc1ccc(/C=C/C(=O)NC(=S)NNC(=O)c2cc(OC)c(OC)c(OC)c2)cc1OC | 0.3 | 18 | -4.3 | -2 | 4.2 | 7 | 9.2 | 2
Cc1ccc2nc3c(c(N)c2c1)CCN3c1ccccc1 | -0.7 | 1 | 2.2 | 28 | -439 | 12 | 2.5 | 1
CCN(CC)c1ccc(N2C(=O)/C(=C/c3cccnc3)SC2=S)cc1 | 0.0 | -6 | 2.2 | -3 | 6.0 | -3 | 6.8 | 7
Cc1ccc(S(=O)(=O)N/N=C/c2ccc(OCC(=O)NC(C)C)cc2)cc1 | 0.2 | -3 | -6.8 | -12 | . | -8 | -0.1 | -9
CCCCc1cc(=O)oc2c(C)c(OCC(=O)NCCN3CCOCC3)ccc12 | 1.7 | 5 | 9.1 | 11 | -13 | -4 | 3.5 | -3
O=C(CSc1nnnn1-c1ccc(Cl)cc1)NC1CCS(=O)(=O)C1 (stereo unspecified) | 0.6 | . | 3.4 | . | 4.4 | -5 | . | -3
O=C(Cc1ccc(F)cc1)Oc1ccc(C(=S)N2CCCC2)cc1 | 0.1 | -19 | -8.5 | -16 | 2.7 | -7 | 3.0 | 5
O=C(COC(=O)c1cc(Cl)nc2ccccc12)c1ccc(Cl)cc1 | -0.1 | 1 | -2.3 | -3 | -1.1 | -25 | 1.4 | 5
O=C(OCc1nc2ccccc2s1)C1CCN(S(=O)(=O)c2cccs2)CC1 | -0.6 | -2 | -1.0 | -14 | 3.8 | -12 | 1.8 | 5
CCOP(=O)(O)c1ccccc1OCCCCCOc1ccccc1P(=O)(O)OCC | 0.2 | -1 | -4.9 | -10 | 5.9 | . | -3.4 | -7
CCCCN1CNC(=S)N(CCc2ccccc2)C1 | 0.3 | 0 | 1.2 | -7 | -0.9 | -6 | -0.3 | 0
C/C(=N\NC(=O)C(N)=O)c1ccc2c(c1)OCCO2 | 0.1 | 3 | 1.5 | -4 | . | 0 | -3.0 | 1
O=C(CSCCO)Nc1ccc(C2CCCCC2)cc1 | 0.0 | -21 | 4.6 | 23 | 5.7 | 0 | -3.1 | -4
Cc1ccc(NC(=O)CNCc2ccccc2)cc1Br | 0.0 | 3 | -1.2 | -7 | 4.1 | 0 | -2.6 | 4
Cc1ccc(C(=O)N/C(=C\c2ccc(Cl)cc2)C(=O)NCCN2CCOCC2)cc1 | -0.1 | 2 | 3.0 | 6 | 4.7 | -1 | ? | -3

One compound at a time, from the list above. Screens in order: A1 inh | Calb FLC | LANA-H2B inh | T cruzi repl | UCH37 inh | Beta cell apopt | RanGTP-Impb inh | B2AR ag
`CCCCN1CNC(=S)N(CCc2ccccc2)C1` reads 0.3 | 0 | 1.2 | -7 | -0.9 | -6 | -0.3 | 0
`O=C(COC(=O)c1cc(Cl)nc2ccccc12)c1ccc(Cl)cc1` reads -0.1 | 1 | -2.3 | -3 | -1.1 | -25 | 1.4 | 5

Next section:
SMILES | A1 inh | Calb FLC | LANA-H2B inh | T cruzi repl | UCH37 inh | Beta cell apopt | RanGTP-Impb inh | B2AR ag
CC1Oc2ccccc2N(CC(=O)NCC2CCCO2)C1=O (stereo unspecified) | 0.3 | 25 | 9.7 | -4 | 2.6 | -4 | 0.7 | 2
CN(c1ccccc1)S(=O)(=O)c1ccc(C(=O)Nc2nccs2)cc1 | -0.4 | -1 | 2.2 | -3 | 2.7 | -6 | -2.0 | -5
CN(C)CCC#CC(O)(c1ccccc1)c1ccccc1 | 0.7 | -14 | 4.4 | -12 | 3.0 | -3 | 2.4 | -4
COC(=O)c1cccc(Cn2c(Cl)c(/C=N/NC(=O)c3ccccc3Cl)sc2=O)c1 | 1.1 | 35 | 4.5 | 25 | . | 8 | 0.4 | 0
COC(=O)c1cc(Cl)c(NC(=O)c2ccc(C(C)(C)C)cc2)cc1OC | 0.8 | -4 | -0.9 | 14 | 3.7 | 3 | ? | -14
Cc1ccc(-n2c(-c3nn(C)cc3Cl)n[nH]c2=S)cc1 | -0.6 | 12 | 6.1 | 0 | -0.1 | -9 | -3.3 | 9
O=C(/C(=N\O)n1cncn1)c1ccc(Cl)cc1Cl | 0.3 | -4 | 1.9 | -37 | . | -4 | 0.5 | 0
CCOc1ccc(CCNC(=O)CN2C(=O)c3cccnc3Oc3ccc(Cl)cc32)cc1 | 2.4 | -2 | -1.4 | 10 | 1.4 | 1 | -2.4 | 7
Cc1ccc(N2C(=O)CC(NNC(=O)Cc3ccc(F)cc3)C2=O)cc1Cl (stereo unspecified) | -0.2 | -1 | -9.4 | -10 | 0.4 | -6 | 10 | -1
O=C(Nc1cccc(Cl)c1)C1CC1c1ccccc1 (stereo unspecified) | 0.2 | -4 | -1.0 | 7 | 0.5 | -1 | 3.9 | 10
CS(=O)(=O)N(Cc1ccccc1)c1ccc(C(=O)N2CCOCC2)cc1 | 0.5 | 4 | -4.2 | -1 | 1.0 | -3 | 3.6 | 1
CCCCN(CC)C(=O)c1ccc2c(c1)OCO2 | 1.0 | -31 | 0.7 | -7 | 0.2 | -11 | -1.1 | 3
COC(=O)C1=C(C)N(c2ccc(C)c(C)c2)/C(=C/c2ccco2)C1=O | 0.7 | ? | -0.9 | 39 | 5.3 | 7 | . | -2
Cc1ccc(/C=C(\NC(=O)c2ccc(C)cc2)C(=O)NCCCn2ccnc2)cc1 | -0.1 | 3 | -1.1 | -3 | 1.4 | -1 | 2.9 | -4
CNC(=O)c1c(NC(=O)CS(=O)(=O)c2ccc(Cl)cc2)sc(C)c1C | 0.6 | 0 | . | -6 | 2.2 | -2 | 0.4 | 4
CC1(C)Cc2c(cnn2-c2ccccc2)C(=O)/C1=N\NC(=O)c1ccccc1 | -0.7 | 17 | -5.8 | -6 | 5.0 | 4 | 6.6 | 3
O=C(NCC(=O)N(c1ccccc1)C(C(=O)NC1CCCC1)c1cccnc1)c1ccco1 (stereo unspecified) | -1.6 | 11 | 0.2 | -10 | 2.0 | -2 | 1.4 | -9
Cn1c(=NCC(O)COc2ccccc2)sc2ccccc21 (stereo unspecified) | -1.1 | -3 | -0.1 | 7 | -3.6 | -5 | 3.2 | -9
CC1CCCC(C)N1CC(O)COCc1ccccc1 (stereo unspecified) | 1.3 | -2 | 3.6 | 19 | 1.6 | 0 | 0.5 | 9
COc1cc(NS(=O)(=O)N2CCCC2)cc(OC)c1OC | -0.8 | 8 | -6.6 | -12 | 5.4 | -7 | ? | -5
Cc1cc(C)c2c(N)c(C(=O)Nc3c(C)n(C)n(-c4ccccc4)c3=O)sc2n1 | 0.9 | 5 | 4.6 | -6 | -12 | -4 | -1.5 | 1
O=C(N/N=C/c1ccccc1)c1cc(-c2ccc3c(c2)OCO3)n[nH]1 | -0.7 | 2 | -0.4 | 16 | . | 12 | 0.4 | -2
CN(CCOc1ccccc1)C(=O)c1ccc(Cl)c(S(=O)(=O)N2CCCCC2)c1 | -0.3 | . | -2.1 | . | 0.6 | -4 | . | 0
OC(CN1CCOCC1)Cn1cnc2ccccc21 (stereo unspecified) | 1.2 | -1 | -4.2 | -9 | 2.3 | -17 | 3.7 | -2
Cc1c(OC(C)C(=O)NCc2ccncc2)ccc2c3c(c(=O)oc12)CCC3 (stereo unspecified) | -0.3 | -1 | 3.2 | 11 | -188 | 4 | 0.1 | -1
CCC(C)(C)NC(=O)CN(C(=O)CCC(=O)Nc1ccccn1)c1ccc2c(c1)OCO2 | -0.1 | -11 | -4.3 | -5 | -0.4 | -4 | ? | -5
CCOc1cc(N2CCOCC2)c(OCC)cc1NC(=O)c1ccc(OC)c(S(=O)(=O)N2CCOCC2)c1 | 0.2 | . | 7.4 | . | 3.2 | 5 | . | 5
COC(=O)c1[nH]c(=O)c2ccccc2c1O | 0.1 | 5 | 23* | -22 | -17 | -5 | 9.0 | -13
CN(C)CCN(C(=O)C1=COCCO1)c1nc2ccc(F)cc2s1 | -0.2 | 17 | 1.0 | 30 | 5.1 | -3 | 6.1 | 6
O=C(c1ccc(CS(=O)(=O)c2ccccc2)o1)N1CCOCC1 | 0.3 | 5 | -5.0 | -17 | 3.8 | -10 | 2.1 | 4
CCOc1ccc(S(=O)(=O)Nc2cc(S(=O)(=O)N(CC)CC)ccc2N2CCCC2)cc1 | 0.5 | 2 | -1.5 | 15 | 1.5 | 10 | -1.2 | -3
